# Bioassay records from PubChem BioAssay.
# BasE inh: BasE siderophore enzyme inhibitors, primary screen, biochemical, Acinetobacter baumannii ATCC 17978, fluorescence polarization | AID 485350, 2010 | 84,000 compounds, 0.1% hits | inhibition, % (no concentration beside the values) | purified BasE, fluorescence polarization binding displacement;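 active = both replicates above 25% with normal brightness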;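 also: 0% = negative plate control signal and 100% = positive plate control signal; stock transfer was 100 nL into about 30 µL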
# LANA-nucl inh: inhibitors of KSHV LANA-nucleosome binding, primary screen, biochemical, fluorescence polarization, FITC-LANA1-23, chicken nucleosomes; FITC-LANA1-23 / chicken nucleosome fluorescence polarization; stronger effect = lower value; z-score (test concentration not listed); 51,000 compounds, 0.3% hits; AID 720717, 2013;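 active = both repeat wells score below -2 in polarization z-score versus plate sample wells, excluding overly bright wells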;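 also: 100 nL library stock added to about 30 µL; numbers are from one replicate; some results filed as inactive read as strong as hits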
#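 Assay system: FITC-LANA peptide and chicken nucleosomes; input: 240 nM purified chicken nucleosomes (480 nM peptide binding sites), final; also added: 50 nM FITC-LANA1-23 probe; medium: TEN-BT buffer, pH 7.5; doses: pin-transferred compound, 100 nL; times: 10–45 min, room temperature; technique: fluorescence polarization; replication: duplicates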
# * = called active by the depositor; . = no result given; & = joins results of further samples. A portion of the library; count on the stated rates, not on these rows.
SMILES,BasE inh,LANA-nucl inh
Cn1c(=NC(=O)C2CC2)sc2ccc3ccccc3c21,-0.5,-0.77
C=CCn1c(SCC(=O)C(C#N)c2nc(C)cs2)nc2ccccc21 (stereo not given),19,.
Oc1ccc(/C=N/NC(=S)N2CCOCC2)cc1,-0.8,.
Cc1ccc2c(COC(=O)CNC(=O)c3ccc(Br)o3)cc(=O)oc2c1,0.0,.
CC(C)C[C@H]1C(=O)N2CCC[C@H]2[C@]2(O)O[C@](NC(=O)[C@@H]3C=C4c5cccc6[nH]c(Br)c(c56)CC4N(C)C3)(C(C)C)C(=O)N12 (stereo not given in full),.,0.068
S=c1[nH]nc(CCn2c3ccccc3c3ccccc32)n1-c1ccccc1,-0.7,1.3
CC1(C)CC(=O)c2c(n(S(C)(=O)=O)c3ccc(NS(C)(=O)=O)cc23)C1,3.0,-0.7
Cc1cc(C)c(C#N)c(SCC(=O)N2CCCC2)n1,-1.7,.
O=C(NCCc1ccccc1)C1CCC(=O)N1Cc1ccc(F)cc1 (stereo not given),0.5,0.19
CCCc1cnc(N2CCN(C(=O)c3cc(C)on3)CC2)nc1,1.3,-0.17
CCC(CO)N=Cc1ccc(O)c(OC)c1 (stereo not given),5.2,0.11
Cc1cc(NC(=O)c2ccc(COC(=O)Cn3cnnn3)cc2)ccc1Cl,-1.6,.
Cc1ccc(C(=O)O)cc1S(=O)(=O)N1CCSCC1,-3.3,0.28
CC(c1ccn[nH]1)n1cncn1 (stereo not given),.,0.07
CC(Sc1nc(-c2ccccc2)cc(=O)[nH]1)C(=O)NC1CCCCC1 (stereo not given),1.0,0.53
COc1ccc(CC(=O)Nc2ccc(S(N)(=O)=O)cc2)cc1OC,-2.2,-0.17
CC(=O)Nc1ccc(S(=O)(=O)N2CCCC(c3nnc(SCc4ccccc4)n3C)C2)cc1 (stereo not given),-1.0,0.93
N#CC1(P(=O)(c2ccccc2)c2ccccc2)CCCC1,1.7,.
Cc1c(O)cccc1C(=O)N[C@@H](CSc1ccccc1)[C@H](O)CN1C[C@H]2CCCC[C@H]2C[C@H]1C(=O)NC(C)(C)C,.,-0.61&0.031
COC(=O)N/N=C/c1cccc(C(F)(F)F)c1,-1.4,.
CCOC(=O)c1sc(SCc2ccccc2)c(S(=O)(=O)C(C)C)c1-n1cccc1,-1.3,.
Cc1onc(-c2ccccc2)c1C(=O)NC(=S)Nc1sc2c(c1C#N)CCC2,-3.0,0.44
Cc1cc(C(=O)COC(=O)c2ccc(N)cc2)c(C)n1-c1c(C)n(C)n(-c2ccccc2)c1=O,0.5,.
COc1ccc(C(=O)CCC(=O)NCc2cc(OC)cc(OC)c2)cc1,1.9,-0.15
Cc1cc2ccccn2c1C#N,0.6,.
Cc1nnc(SC(C(=O)N(C)C)c2ccccc2)n1C1CC1 (stereo not given),2.1,.
Cc1nn2c(C)nc3sc4c(c3c2nc1=O)CC(C)(C)OC4,-0.2,1.4
CN1C(=O)C(C#N)=C(N)C12CCCC2,2.5,.
NC(=O)Cn1c(=O)c2ccc(Cl)cc2n2nncc12,0.2,-1.7
O=C1c2ccccc2C(=O)N1Cc1cc(=O)n2ccsc2n1,1.9,.

# One compound at a time (already shown). Values in the order: BasE inh | LANA-nucl inh
# Cc1cc(NC(=O)c2ccc(COC(=O)Cn3cnnn3)cc2)ccc1Cl is listed with -1.6 | .
# O=C(NCCc1ccccc1)C1CCC(=O)N1Cc1ccc(F)cc1 (stereo not given) is listed with 0.5 | 0.19

# Other entries follow:
SMILES,BasE inh,LANA-nucl inh
COc1ccc2c(c1)sc(=NC(=O)c1cccc(S(C)(=O)=O)c1)n2C,-0.8,-0.28
CC(C(=O)Nc1ccc2c(c1)OCCO2)N(C)Cc1c(F)cccc1Cl (stereo not given),2.9,.
CCOC(=O)c1sc2sc(C(=O)OCC)c3c2c1CN(Cc1ccccc1)C3,4.7,-0.0035
CC(OC(=O)CSc1nc2ccccc2o1)c1nnc(-c2ccccc2)o1 (stereo not given),1.0,.
Cc1ccc(S(=O)(=O)c2nc(-c3ccccc3)oc2NCc2ccc3c(c2)OCO3)cc1,5.8,-0.31
COC(=O)c1cc(-c2ccccc2)nc2ccccc12,1.8,0.083
CCC(=O)OC1(C(=O)CCl)[C@@H](C)C[C@H]2[C@@H]3CCC4=CC(=O)C=C[C@]4(C)[C@@]3(F)[C@@H](O)C[C@@]21C (stereo not given in full),-0.5,0.26
CC(C)OC(=O)C1=C(N)OC2=C(C(=O)CCC2)C1c1ccccc1F (stereo not given),3.4,1.1
CCCCN(C)S(=O)(=O)c1ccc(C(=O)Nc2nnc(-c3ccco3)o2)cc1,-0.9,0.8
O=C(/C=C/c1cccs1)NCCOc1ccccc1,1.2,.

# A second format for part of the listing above:
molecule	BasE inh	LANA-nucl inh
CC(C(=O)Nc1ccc2c(c1)OCCO2)N(C)Cc1c(F)cccc1Cl (stereo not given)	2.9	.
CCOC(=O)c1sc2sc(C(=O)OCC)c3c2c1CN(Cc1ccccc1)C3	4.7	-0.0035
CC(OC(=O)CSc1nc2ccccc2o1)c1nnc(-c2ccccc2)o1 (stereo not given)	1.0	.

# Additional results.
SMILES,BasE inh,LANA-nucl inh
CCOc1ccc(CCNC(=O)CN2CCN(Cc3ccccc3C)C2=O)cc1OCC,0.0,-0.4
O=C(O)/C=C/c1nc2ccccc2s1,1.1,.
CCN1CCN(Cc2c(C)[nH]c3c(C)cc(C)cc3c2=O)CC1,2.1,-0.13
Cc1nc2nc[nH]n2c(=O)c1CCC(=O)O,-0.3,0.47
C/C(=N\NC(=O)COc1ccc(Cl)cc1)c1ccc(O)cc1O,4.5,.
O=C1CNC(=S)N1CCc1cnc[nH]1,0.6,-0.85
CC(C)(C)NCCOc1ccc2ccccc2c1,-6.5,.
CCN(CC)S(=O)(=O)c1ccc(-c2ccc(C3N=C(N)Nc4nc5ccccc5n43)o2)cc1 (stereo not given),-1.4,.
CCOC(=O)c1cc(/C(C)=N/OC(=O)c2ccccc2)on1,1.3,-0.51
CN(C)c1ccc(Nc2ncnc3ccc(I)cc23)cc1,-2.4,3.1
COC(=O)CSc1nnc2c3ccccc3n(CCc3ccccc3)c2n1,3.4,-0.042
CCOC(=O)c1c(C)oc(NC(=O)c2nn(Cc3ccccc3)c(=O)c3ccccc23)c1C#N,0.8,.
CC(C)(C)n1nnnc1C(c1cccs1)N1CCCc2ccccc21 (stereo not given),0.1,0.37
COC(=O)c1ccc(COC(=O)c2ccc3c(=O)n4c(nc3c2)CCCCC4)o1,2.0,.
c1ccc(CCNc2ccccc2)cc1,-1.4,-0.28
O=C1Cc2ccccc2C(=O)N1,18,.
CC(C)NC(=O)c1nc2ccccc2s1,1.1,-0.012
COC(=O)c1cc(OCC(=O)N2CC(C)CC(C)C2)cc(C(=O)OC)c1 (stereo not given),2.0,.
CC1=C(C#N)C(c2cccc(Oc3ccccc3)c2)C2=C(CCCC2=O)N1 (stereo not given),-0.8,-0.0015
COc1ccc(C2c3cccn3CCN2S(=O)(=O)c2ccc(NC(C)=O)cc2)cc1OC (stereo not given),-2.4,1.4
O=C(OCC(=O)c1c[nH]c2ccccc12)c1cccs1,-8.6,.
O=C(NCC(=O)N1CCCC1)c1ccc(Br)cc1,0.3,.
CCNCC(O)COc1cc(C)c(Cl)c(C)c1 (stereo not given),-1.2,0.0065
COCc1c(C(=O)Oc2ccc(-n3cnnn3)cc2)sc2cccc(F)c12,-1.8,.
COc1ccc(-c2nn(C)c(=O)c3ccccc23)cc1CNC(=O)NC1CCCCC1,-0.5,.
COc1cc(/C=N/NC(N)=O)cc(Br)c1OC,-0.3,.
CN(C)C(=O)c1c(NC(=O)c2ccccc2)sc2c1CCC2,1.1,-1.1
COc1ccc(S(=O)(=O)n2nccc2-c2ccc(-c3cccs3)s2)cc1OC,0.8,.
COc1ccc(OC(=O)Nc2csc(Cc3ccsc3)n2)cc1,-3.1,0.5
Cc1c(C2=CCN(S(=O)(=O)c3ccc(Cl)s3)CC2)c2ccccc2n1CC(=O)N1CCCC1,-1.5,-0.43
c1cncc(C2OCC3(CO2)COC(c2cccnc2)OC3)c1 (stereo not given),-0.2,.
CC(C)Cc1nnc(NC(=O)CCn2[nH]c(=O)ccc2=O)s1,2.4,.
CC12CCC(=O)N1C(C(=O)NCCN1C(=O)S/C(=C\c3ccccc3)C1=O)CS2 (stereo not given),0.0,.
O=C(COC(=O)c1ccc(-n2cnnn2)cc1)Nc1ccccc1C(=O)NC1CC1,1.0,.
CC1(C)CC(=O)C(C=NCCN2CCN(C(=O)Nc3ccc(Cl)c(Cl)c3)CC2)=C(O)C1,2.4,.
C1CN(C2OCCOC2N2CCOCC2)CCO1 (stereo not given),1.4,.
COc1ccc(Br)cc1CN(C)CN1C(=O)C2CC=CCC2C1=O (stereo not given),2.9,.
COC(=O)c1c(C)oc(C)c1S(=O)(=O)NCCSCc1c(F)cccc1Cl,-0.7,1.2
CC(=O)Nc1ccc(C(=O)Nc2ccc(OCC(=O)O)cc2)cc1,-3.5,1.5
COc1ccc(NS(=O)(=O)c2ccc(Oc3ncccn3)cc2)cc1,0.5,.
Oc1cc(OCc2cccc(C(F)(F)F)c2)ccc1-c1ccn[nH]1,.,-1.3
CS(=O)(=O)N1CCN(c2ccccc2F)CC1,-1.6,-0.38
Cc1nn(CCCC(=O)NC(C)C)c(=O)c2c1sc1ccccc12,-1.4,-0.38
COc1ccc(S(=O)(=O)NCc2cn3cccc(C)c3n2)cc1OC,-2.9,1.2
CCCS(=O)(=O)C1=C(N)OC(c2ccccc2)=C(C#N)C1c1ccc(Cl)cc1 (stereo not given),-4.9,.
Cc1cc(C(=O)N/N=C2\CCCc3ccccc32)c(C)o1,-0.6,.
N#CC(C#N)=Cc1ccc(OC(=O)c2ccccn2)cc1,1.7,.
Cc1nn(Cc2nc(C(C)(C)C)cs2)c(C)c1Br,0.0,.
CCC(c1nnc(SCc2nc3sc4c(c3c(=O)[nH]2)CCC4)n1Cc1ccccc1)N(C)C (stereo not given),-4.1,.
Cc1oc(-c2ccccc2)nc1C(=O)OCC(=O)C12CC3CC(CC(C3)C1)C2,-2.8,.
# Other records:
SMILES,BasE inh,LANA-nucl inh
CCCCc1nnc(NC(=O)Cn2c(COc3ccccc3)nc3ccccc32)s1,-1.9,.
c1cnc2c(c1)NC1(CCCCC1)N2,29,-3.6*
Cc1ccccc1N1CCn2c1nc1c2c(=O)n(C)c(=O)n1C,-1.2,0.71
CCCCOC(=O)c1sc2scc(C)c2c1C,4.3,-0.42
CCc1c(C(=O)NC2CCCC2)csc1C,-2.6,1.5
CCCc1oc2c(cc(NS(=O)(=O)c3ccc(CC)cc3)c3ccccc32)c1C(=O)OCC,-1.0,.
O=C(NCc1ccccc1Cl)C1CCN(c2nc3ccccc3o2)CC1,3.0,-0.57
COc1ccc2sc(N3C(=O)C4CC=C(C)CC4C3=O)nc2c1 (stereo not given),-2.6,0.77
CCOC(=O)c1c(/N=C/N(C)C)sc(C)c1C,0.6,.
Cc1nc2ccccc2n1CCOc1ccc(Cl)cc1,3.2,-0.71
N#Cc1cn(Cc2ccccc2)c(=O)[nH]c1=O,-0.8,0.24
CCOC(=O)N1CCN(C(=O)CSc2ccc(-c3ccccc3)nn2)CC1,2.5,-0.42
C=CCOc1ccc(Br)cc1/C=N/O,.,0.29
Cc1cc(=O)oc2c(CN(C)C3CCCCC3)c(O)ccc12,0.8,0.62
O=C1Nc2cc(C(=O)N3CCCC3)ccc2NC1CS(=O)(=O)Cc1cccc(Br)c1 (stereo not given),-0.6,-0.46
O=C(COC(=O)c1cc(=O)[nH]c2ccccc12)c1ccccc1,2.9,-0.71
Cc1cc(N2Cc3ccccc3C2)ccc1/C=C1/C(=O)NC(=O)N(C2CCCCC2)C1=O,9.8,.
COc1ccc(Cn2nnnc2C(c2ccccc2)N2CCC(C)CC2)cc1 (stereo not given),-2.2,-0.1
NC(=O)c1ccsc1NC(=O)[C@H](Cc1ccccc1)NC(=O)c1ccco1,-2.9,.
O=C(O)C1C2C=CC3(CN(CCCN4CCOCC4)C(=O)C13)O2 (stereo not given),1.2,1

# Some of these compounds in order of number of heavy atoms, highest first:
SMILES,BasE inh,LANA-nucl inh
Cc1cc(N2Cc3ccccc3C2)ccc1/C=C1/C(=O)NC(=O)N(C2CCCCC2)C1=O,9.8,.
COc1ccc(Cn2nnnc2C(c2ccccc2)N2CCC(C)CC2)cc1 (stereo not given),-2.2,-0.1
O=C(O)C1C2C=CC3(CN(CCCN4CCOCC4)C(=O)C13)O2 (stereo not given),1.2,1

# Taken from above:
# Under BasE inh, COc1ccc(Cn2nnnc2C(c2ccccc2)N2CCC(C)CC2)cc1 (stereo not given) is entered as -2.2
# Under BasE inh, NC(=O)c1ccsc1NC(=O)[C@H](Cc1ccccc1)NC(=O)c1ccco1 is entered as -2.9
# Under BasE inh, CCOC(=O)N1CCN(C(=O)CSc2ccc(-c3ccccc3)nn2)CC1 is entered as 2.5
# Under BasE inh, O=C(O)C1C2C=CC3(CN(CCCN4CCOCC4)C(=O)C13)O2 (stereo not given) is entered as 1.2

# Continuation:
SMILES,BasE inh,LANA-nucl inh
COC(=O)c1ccc(/C=N/n2c(-c3ccco3)csc2=NC2CCCCC2)cc1,-7.8,.
CCC(C)[C@@H](CO[C@@H](Cc1ccccc1)C(=O)N[C@@H](CCS(C)(=O)=O)C(=O)OC(C)C)NC[C@@H](N)CS (stereo not given in full),-3.0,-0.36
CCCCCOc1ccc(C(=O)CCN2CCOCC2)cc1,-3.3,1
O=C(C1CC(=O)N(C2CCCCC2)C1)N1CCN(c2cccc(C(F)(F)F)c2)CC1 (stereo not given),-1.8,-0.5
CN1CCN(c2ccc(NC(=O)CC34CC5CC(CC(C5)C3)C4)cc2)CC1,-5.5,0.98
